Compound activity: PubChem, National Center for Advancing Translational Sciences (NCATS)
TRPML1 ag = agonists of human TRPML1 channel | TRPML1-expressing cells, Ca2+ dye fluorescence, FDSS; host cell line not named in the record; reference of the full effect not given here | AID 624414 | actives 0.12% (n = 410,000) | activation, % (no concentration beside the values) | Q9GZU1; in the data active = activation above about 50%; inconclusive = about 30% to 50%; inactive = below about 30%; also: 0% is about no effect; the text of the record puts the active cut at 80%
Target sequence (Q9GZU1 whole entry, looked up): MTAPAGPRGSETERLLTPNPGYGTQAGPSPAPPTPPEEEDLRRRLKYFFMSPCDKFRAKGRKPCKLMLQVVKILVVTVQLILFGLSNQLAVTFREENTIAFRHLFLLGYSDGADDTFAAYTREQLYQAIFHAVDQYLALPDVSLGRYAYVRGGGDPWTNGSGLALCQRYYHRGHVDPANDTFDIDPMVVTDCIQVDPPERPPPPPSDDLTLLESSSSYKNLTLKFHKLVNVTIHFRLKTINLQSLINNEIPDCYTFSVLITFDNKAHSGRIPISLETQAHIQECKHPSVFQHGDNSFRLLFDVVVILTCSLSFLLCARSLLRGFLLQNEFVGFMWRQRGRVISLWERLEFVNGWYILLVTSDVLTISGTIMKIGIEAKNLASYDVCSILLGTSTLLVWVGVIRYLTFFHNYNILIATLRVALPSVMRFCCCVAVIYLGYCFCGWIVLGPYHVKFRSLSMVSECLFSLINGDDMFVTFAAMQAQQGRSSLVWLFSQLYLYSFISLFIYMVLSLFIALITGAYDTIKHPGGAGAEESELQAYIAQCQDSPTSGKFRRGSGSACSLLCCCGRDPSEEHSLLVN
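Kinetic FDSS Ca2+ read in Tet-induced TRPML1-DL cells (ABD Ca8 dye plus quencher, 45-90 min RT loading): baseline, then compound, then 110 s agonist window; EC80 agonist 54-4 at 4uM final added afterwards for a 110 s antagonist window.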
TRPML1 inh = inhibitors of human TRPML1 channel; actives 0.02% (n = 390,000); Q9GZU1; activity change, negative = inhibition, % (no concentration beside the values); AID 624415; TRPML1-inducible cells, Ca2+ dye fluorescence, FDSS; hits give low values; inhibition of EC80 agonist-evoked calcium signal; in the data active means activity change below about -50%; inconclusive means about -30% to -50%; inactive means above about -30%;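 also: stimulus is agonist 54-4 at its EC80 concentration; % is scaled to controls: 0 for no effect and ±100 for the full control effect; compound concentration not given in the record; the text of the record puts the active cut at -80%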
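Tet-induced TRPML1-DL cells loaded with Ca8 no-wash calcium dye were read kinetically on FDSS. Compound addition was followed by EC80 agonist 54-4 (4 uM final); inhibition was read over 110 s.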
The depositor's hits bear a star; ? = inconclusive. Only part of the results is shown. The share of hits here may be higher or lower than overall.

SMILES	TRPML1 ag	TRPML1 inh
CCOc1ccc(CNC(=O)C2CCN(S(=O)(=O)c3ccc4c(ccn4C)c3)CC2)cc1	1.3	5
COc1ccc(-c2c(C)nn3c(-c4ccccc4)cc(-c4ccccc4)nc23)cc1	0.9	-18
CCOC(=O)/C(C#N)=C/c1ccc(-c2ccc(Br)cc2)o1	0.2	24
CCC(C(=O)Nc1cccc(Cl)c1C)n1nc(-c2ccc(C)cc2)ccc1=O (stereo not given)	3.1	-4
COc1cccc(NC(=O)c2nnn(Cc3ccc(OC)c(Br)c3)c2N)c1	1.6	10
CCOc1ccc(N(CC(=O)Nc2ccccc2CC)S(=O)(=O)c2c(C)[nH]c(=O)[nH]c2=O)cc1	0.3	-4
COc1cccc(NC(=O)CSc2cc(C)c3ccccc3n2)c1	2.9	-14
Cc1cc(C)c2c(CC(=O)Nc3ccc(S(=O)(=O)N4CCCCC4)cc3)coc2c1	0.7	25
CCc1ccc(NC(=O)CSc2nc3c([nH]c4ccccc43)c(=O)n2-c2cccc(OC)c2)cc1	2.4	2
COc1ccccc1NC(=O)c1ccc2oc(=O)c(S(=O)(=O)c3ccccc3)cc2c1	-0.2	-9
CCc1ccc(NC(=O)C(=O)NCCc2sc3nc(-c4ccc(OC)cc4)nn3c2C)cc1	0.6	2
Cc1cccc(-n2cnc3cc(C(=O)NCc4ccccc4Cl)ccc32)c1	0.1	-6
Cc1ccc(NC(=O)CC(c2ccc(F)cc2)N2Cc3ccccc3C2=O)cc1C (stereo not given)	0.6	-9
COc1ccc(-c2onc(C)c2C)cc1S(=O)(=O)NC1CCCCC1	0.2	40
Cc1ccccc1C(=O)Nc1ccc(C(=O)OCc2cc(=O)n3nc(C(C)C)sc3n2)cc1	1.7	-7
CCc1ccc(Nc2nn3c(=O)c4cc5c(cc4nc3s2)OCO5)cc1	0.9	0
COCCCNC(=O)c1c(-c2ccccc2)c(-c2ccccc2)nn(C)c1=O	1.6	-1
O=C(c1cccc([N+](=O)[O-])c1)N1CCN(CCc2ccncc2)CC1	0.2	-3
Cc1ccc(OCc2nc(-c3ccc(C(=O)N4CCN(c5ccc(Cl)cc5)CC4)cc3)oc2C)cc1	0.4	-10
COc1ccccc1/C=C/c1nc(C#N)c(NCC(C)C)o1	0.4	-4
Cc1ccc2nc(N3CCN(c4ccc(F)cc4)CC3)c3nnnn3c2c1	1.9	22
COCCN(Cc1cccs1)S(=O)(=O)c1cc(-c2cc(C)no2)ccc1C	4.1	18
O=S(=O)(NCC(c1cccs1)S(=O)(=O)c1ccccc1)c1ccc(F)cc1 (stereo not given)	0.9	3
COc1ccc(Cn2c(SCC(=O)N3CCN(c4ccc(F)cc4)CC3)nc3ccccc32)cc1	1.6	12
COc1ccc(-n2c(SCC(N)=O)nc3c(oc4ccccc43)c2=O)cc1	-0.3	2
CCOC(=O)c1c(C)[nH]c(CCC(=O)Nc2cc(C)cc(C)c2)c1C	3.9	?
CCOc1ccc(NC(=O)CN(Cc2ccccc2)S(=O)(=O)c2ccc3nc(C)sc3c2)cc1	3.5	17
COc1ccc(S(=O)(=O)NCCc2sc(-c3cccnc3)nc2C)c(F)c1	2.6	-15
O=C(c1ccc(Br)cc1)N(Cc1ccco1)c1ccccn1	-0.7	-18
COc1ccccc1CNC(=O)c1ccc2c(c1)N(Cc1ccc(C)cc1)CCS2	1.3	12

Nothing new here: an excerpt of the list.
SMILES	TRPML1 ag	TRPML1 inh
Cc1ccc2nc(N3CCN(c4ccc(F)cc4)CC3)c3nnnn3c2c1	1.9	22
COCCN(Cc1cccs1)S(=O)(=O)c1cc(-c2cc(C)no2)ccc1C	4.1	18
O=S(=O)(NCC(c1cccs1)S(=O)(=O)c1ccccc1)c1ccc(F)cc1 (stereo not given)	0.9	3
COc1ccc(Cn2c(SCC(=O)N3CCN(c4ccc(F)cc4)CC3)nc3ccccc32)cc1	1.6	12
COc1ccc(-n2c(SCC(N)=O)nc3c(oc4ccccc43)c2=O)cc1	-0.3	2
CCOC(=O)c1c(C)[nH]c(CCC(=O)Nc2cc(C)cc(C)c2)c1C	3.9	?
CCOc1ccc(NC(=O)CN(Cc2ccccc2)S(=O)(=O)c2ccc3nc(C)sc3c2)cc1	3.5	17

Next section.
SMILES	TRPML1 ag	TRPML1 inh
CN(C)c1ccc(C(CNC(=O)c2ccccc2Cl)N2CCc3ccccc32)cc1 (stereo not given)	0.0	-14
CCCCOC(=O)c1ccc(Nc2nc3ccc(C(=O)c4ccccc4)cc3n3cnnc23)cc1	-0.2	15
Cc1ccccc1-c1noc(-c2cc(C(C)C)[nH]n2)n1	-0.9	-2
CCN(Cc1ccccc1)C(=O)Nc1ccc2c(c1)N(C)C(=O)c1ccccc1S2	-0.1	-15
Cc1c(NC(=O)c2cc(=O)c3ccccc3o2)c(=O)n(-c2ccccc2)n1C	-0.1	-7
COc1ccc(COC(=O)C2=C(C)NC(=O)CC2c2cccc(Cl)c2Cl)cc1 (stereo not given)	-0.8	-5
O=C(CN1C(=O)COc2ccc(S(=O)(=O)N3CCCCCC3)cc21)Nc1cccc(Cl)c1	1.2	-13
COc1ccc(-c2nnc(C3CCN(S(=O)(=O)c4ccc(C)c(C)c4)CC3)o2)cc1	3.5	-22
COc1ccc(-c2noc(-c3ccc(NCc4ccccc4OC)c([N+](=O)[O-])c3)n2)cc1	0.0	20
CCCCC1CCC(C(=O)N2CC(=O)Nc3ccc(Br)cc3C2c2ccc(F)cc2)CC1 (stereo not given)	0.9	-3
CCOc1ccc(NC(=O)C2CCCN(c3ccc(Sc4ccc(C)cc4)nn3)C2)cc1 (stereo not given)	-0.6	-7
CCOC(=O)C1CCCN(c2c(C(=O)c3ccc(OCC)cc3)cnc3ccccc23)C1 (stereo not given)	0.5	-1
COc1ccc(NC(=O)CSc2nc(-c3ccc(OC)cc3)[nH]c2-c2ccc(OC)cc2)cc1	3.2	13
COc1ccc(Cl)cc1NC(=O)Cn1nc(Cc2ccncc2)c2ccccc2c1=O	0.9	-11
C[C@@H](C(=O)Nc1ccc2ccccc2c1)[C@H]1C[C@]1(C)[C@H](N)c1ccccc1	0.0	-7
CCc1ccc(NC(=O)C2CCCN2S(=O)(=O)c2cccc3nsnc23)cc1 (stereo not given)	-0.6	8
Cc1cccc(Cn2c(=O)n(-c3ccc(Cl)c(Cl)c3)c(=O)c3c(C)c(C)sc32)c1	1.1	12
CC(C)CN(CCNC(=O)c1cn(C)c2ccc(S(=O)(=O)N3CCCCCC3)cc2c1=O)CC(C)C	-0.5	39
COc1ccc(S(=O)(=O)N(CC(=O)Nc2cccc(C)c2)c2ccc(C)cc2)cc1OC	5.0	12
CCCc1nn2c(=O)cc(COC(=O)c3ccccc3NC(=O)c3cccs3)nc2s1	0.0	-10
CCN(C(=O)Cn1c(C(=O)OC)cc2sc(Cl)cc21)c1cccc(C)c1	-0.4	15
COc1cc(OC)c(NS(=O)(=O)c2cc(-c3cnc(C4CC4)o3)ccc2C)cc1Cl	-1.0	2
COCCCNC(=O)c1ccc(Cn2c(=O)c3ccccc3n(CC(=O)Nc3c(C)cccc3C)c2=O)cc1	-0.3	-5
CC1CCN(S(=O)(=O)c2ccc(N3CCCCS3(=O)=O)cc2)CC1	-0.7	11
Cn1ccc2c(OCC(=O)NCc3ccc(F)cc3)cccc2c1=O	-0.7	-23
COc1ccc(OCCn2cc(C(=O)c3ccco3)c3ccccc32)cc1	1.4	49
COCCNC(=O)C(=O)NCC(c1cccnc1)N1CCN(c2ccccc2F)CC1 (stereo not given)	0.6	26
Cc1ccc(-c2[nH]c3ccccc3c2SCCNC(=O)c2ccc(S(=O)(=O)N(C)C)cc2)cc1	1.8	-8
CCn1c2ccccc2c2cc(CN3CCN(Cc4ccccc4F)CC3)ccc21	1.0	1
Cc1ccc(-n2nc(CO)c(C(=O)NC(C)c3ccccc3)n2)cc1C (stereo not given)	3.9	-4

2 records drawn at random from the list so far, as already listed:
SMILES	TRPML1 ag	TRPML1 inh
COCCCNC(=O)c1ccc(Cn2c(=O)c3ccccc3n(CC(=O)Nc3c(C)cccc3C)c2=O)cc1	-0.3	-5
CCn1c2ccccc2c2cc(CN3CCN(Cc4ccccc4F)CC3)ccc21	1.0	1

The results go on.
SMILES	TRPML1 ag	TRPML1 inh
Cc1ccc2oc(-c3ccc(NC(=O)c4cccc(F)c4)c(C)c3)nc2c1	2.6	-16
Cc1c(C2=CCN(S(=O)(=O)c3ccc(Br)cc3)CC2)c2ccccc2n1CC(=O)N1CCCC1	1.5	-3
CCc1ccc(NC(=O)Cc2csc(COc3cccc(C)c3)n2)cc1	0.8	4
Cc1ccccc1Cn1c(SCc2ccc(C(=O)NC3CCCCC3)cc2)nc2ccncc21	-0.2	-4
CCCCN1C(=O)C(O)(CC(=O)c2ccc(C(C)(C)C)cc2)c2ccccc21 (stereo not given)	1.6	71
COC(=O)c1ccc(Nc2ncnc3c2nc2n3CCCC2)cc1	2.3	-4
CC(C)c1nn2c(=O)cc(COC(=O)c3ccc(NC(=O)COc4ccccc4)cc3)nc2s1	2.0	-13
Cc1cc(C)n(CCC(=O)Nc2ccc(Cl)cc2)n1	0.2	8
CC(=O)N1CCc2c(sc3c2c(=O)n(Cc2ccccc2)c(=O)n3Cc2cccc(Cl)c2)C1	0.4	44
O=C(Nc1ccccc1O)c1cc(S(=O)(=O)N2CCCC2)ccc1Cl	0.4	12
Cc1cccc(-n2ncc(C(=O)N3CCOCC3)c2C2CCN(C(=O)OC(C)(C)C)CC2)c1	0.1	-18
CCN1CCN(c2cc(C)c3cc(NC(=O)c4cc(Cl)ccc4OC)ccc3n2)CC1	-0.7	-4
O=C(NCc1cccc(Cl)c1)C1CCN(C(=O)c2sccc2-n2cccc2)CC1	0.2	13
Cc1cccc(CNC(=O)CN2C(=O)CCn3nc(-c4cn(C)c5ccccc45)cc32)c1	-0.2	5
CCOC(=O)c1ccc2oc(=O)n(Cc3ccccc3)c2c1	3.0	10
COc1cc(CN2CCc3nc(Nc4ccc5c(c4)OCCO5)ncc3C2)cc(OC)c1OC	1.1	12
COc1ccc(N2CCN(c3ncnc4onc(C)c34)CC2)cc1	-1.0	10
COc1ccc(OC)c(CNC(=O)C2CCN(c3nc4ccccc4nc3C(F)(F)F)CC2)c1	-0.6	-4
Cc1oc(-c2ccccc2)nc1CSc1nnc(C)n2c1cc1sccc12	-0.7	-12
COc1ccc(-c2oc3ncn4nc(-c5ccccc5O)nc4c3c2-c2ccc(OC)cc2)cc1	-1.1	0
COC(=O)c1c(NC(=O)COc2ccc(Cl)cc2C)sc2c1CCCCC2	1.5	7
COc1ccc(-n2ccnc(NCc3cccs3)c2=O)cc1	1.5	-2
CC(C)C1N=C2c3ccccc3N=C(SCC(=O)NCc3ccc(Cl)cc3)N2C1=O (stereo not given)	0.0	35
COc1ccc(N2CCN(C(=O)c3ccc4c(c3)N(Cc3cccc(Cl)c3)C(=O)c3ccccc3S4(=O)=O)CC2)cc1	-0.1	22
Cc1ccc(S(=O)(=O)n2nc(-c3ccccc3)nc2NCc2ccccc2Cl)cc1	0.6	7
Cc1ccc(-c2nc(-c3cc4c([nH]c3=O)CC(C)(C)CC4=O)sc2C)cc1	0.3	-16
Cc1nn(-c2ccc(N3CCCCC3)nn2)c(C)c1CCC(=O)NCc1ccccc1	-0.4	-11
Cc1ccc(S(=O)(=O)c2cn(CC(=O)Nc3ccc4c(c3)OCO4)c3ccccc3c2=O)cc1	-0.8	16
COc1ccc(-c2cc(NCc3ccc(C)cc3)n3cnnc3n2)cc1	-0.9	19
O=C(Cn1c(=O)n2nc(-c3cccc(F)c3)nc2c2ccccc21)N1CCN(c2ccc(F)cc2)CC1	0.4	7
COc1ccccc1CNC(=O)c1cccc(N2CCCS2(=O)=O)c1	0.1	5
Cc1nc(N2CCOCC2)c2c(C(=O)N3CCN(c4cc(Cl)ccc4C)CC3)c(C)oc2n1	0.3	-10
CCOc1ccc(CNC(=O)Cn2cc3c(n2)-c2c(oc(C(=O)N4CCCC4)c2C)CC3)cc1	1.6	14
O=C(CCCn1c(=O)c2sccc2n(Cc2c(F)cccc2Cl)c1=O)NCc1ccccc1	4.9	33
CC(C)CCNC(=O)CCCN1C(=O)c2ccccc2Sc2ncccc21	0.5	10
CCC(CC)C(=O)Nc1ccc2nc(SCC(=O)N3CCCC3)sc2c1	2.6	-21
COc1cc(C(=O)Nc2sc3c(c2C(N)=O)CCC(C)C3)cc(OC)c1OC (stereo not given)	-0.4	-17
Cc1cc(Cl)ccc1OCC(=O)N1CCC(c2nc3ccccc3o2)CC1	3.5	10
O=C(NCc1ccccc1)c1ccc(CNS(=O)(=O)c2ccc(Br)cc2)cc1	-0.9	-6
CCc1ccc(-n2c(=O)c3c4c(sc3n(Cc3ccc(C)cc3)c2=O)CCC4)cc1	0.3	3
Cc1ccn2c(Nc3ccc4c(c3)OCCO4)c(-c3cccs3)nc2c1	3.2	42
CC(=O)c1cccc(NC(=O)CSc2nc3c(=O)n(C)c(=O)n(C)c3n2C)c1	1.4	9
Cc1ccc(C)c(N2C(=O)N(Cc3cc(=O)n4ccccc4n3)c3ccccc3S2(=O)=O)c1	0.3	-13
CCOc1ccc(Nc2sc(C(=O)c3ccc4c(c3)OCO4)c(N)c2S(=O)(=O)c2ccc(C)cc2)cc1	3.7	-2
COc1ccc(NC(=O)Cc2csc(C)n2)cc1	1.7	-1
